UUG fidelity: yeast start codon fidelity modulation | S. cerevisiae UUG-firefly luciferase reporter, luminescence/redox ratio | activity score, % at 18.7 µM | hit rate 0.13% among 350,000 | AID 602363;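 active means replicate mean at a twofold rise or more, about +100% in these data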;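 further: firefly luciferase made from a UUG start codon reports start codon fidelity; reporter light over untreated wells divided by growth signal over untreated wells; some hits fall short of that in this replicate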
HIV Env fusion: blocks HIV Env-driven cell-cell fusion; HeLa-JRFL Env/CEM21 cell fusion, luciferase; inhibition, % at 12.3 µM; hit rate 1.1% among 360,000;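 active means mean replicate inhibition score of at least 50 and every replicate individually at or above 50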;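 further: 0% = plate neutral controls and 100% = maraviroc near 300 nM; one replicate is shown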
The depositor's hits bear a star; [ ] = another dose, or the depositor's remark.

SMILES | UUG fidelity | HIV Env fusion
C[C@H]1CCCCO[C@H](CN(C)Cc2ccccc2)[C@@H](C)CN([C@@H](C)CO)C(=O)c2cc(NS(=O)(=O)c3ccccc3)ccc2O1 | 1 | 20[16.7 µM]
C[C@H](CO)N1C[C@H](C)[C@H](CN(C)C(=O)c2ccccn2)Oc2ncc(C#Cc3ccccn3)cc2C1=O | 18 | -2[16.7 µM]
COc1ccc(S(=O)(=O)N(C)C[C@@H]2Oc3ccc(NC(=O)Nc4ccc5c(c4)OCO5)cc3CC(=O)N([C@H](C)CO)C[C@@H]2C)cc1 | 5 | 49[16.7 µM]
N#C[C@H]1[C@H](c2ccc(-c3ccccc3)cc2)[C@@H](CO)N1C(=O)Cc1ccccc1 | 2 | -31[16.7 µM]
COc1cccc(-c2ccc3c(c2)O[C@@H](CN(C)Cc2cncnc2)[C@@H](C)CN([C@@H](C)CO)S3(=O)=O)c1 | 12 | -4[16.7 µM]
COc1ccc(S(=O)(=O)N(C)C[C@@H]2Oc3cc(-c4ccccc4OC)ccc3S(=O)(=O)N([C@@H](C)CO)C[C@H]2C)cc1 | -18 | 27[16.7 µM]
CCCc1cn(CC[C@@H]2CC[C@@H](NC(=O)C3CCCCC3)[C@H](CO)O2)nn1 | 3 | -12[16.7 µM]
COc1ccc(NC(=O)N(C)C[C@@H]2Oc3ncc(C4=CCCC4)cc3C(=O)N([C@H](C)CO)C[C@@H]2C)cc1 | 12 | -26[16.7 µM]
C[C@@H]1CCCCO[C@@H](CN(C)Cc2ccc(C(=O)O)cc2)[C@H](C)CN([C@@H](C)CO)C(=O)c2cc(NS(=O)(=O)c3ccccc3)ccc2O1 | 0 | -13[16.7 µM]
COc1cccc(NC(=O)C[C@@H]2CC[C@@H]3[C@@H](COc4ccc(NC(=O)C5CCCCC5)cc4C(=O)N3C)O2)c1 | 8 | -5[16.7 µM]

Not a retest: 7 of the compounds above.
SMILES | UUG fidelity | HIV Env fusion
C[C@H]1CCCCO[C@H](CN(C)Cc2ccccc2)[C@@H](C)CN([C@@H](C)CO)C(=O)c2cc(NS(=O)(=O)c3ccccc3)ccc2O1 | 1 | 20[16.7 µM]
C[C@H](CO)N1C[C@H](C)[C@H](CN(C)C(=O)c2ccccn2)Oc2ncc(C#Cc3ccccn3)cc2C1=O | 18 | -2[16.7 µM]
COc1ccc(S(=O)(=O)N(C)C[C@@H]2Oc3ccc(NC(=O)Nc4ccc5c(c4)OCO5)cc3CC(=O)N([C@H](C)CO)C[C@@H]2C)cc1 | 5 | 49[16.7 µM]
N#C[C@H]1[C@H](c2ccc(-c3ccccc3)cc2)[C@@H](CO)N1C(=O)Cc1ccccc1 | 2 | -31[16.7 µM]
COc1cccc(-c2ccc3c(c2)O[C@@H](CN(C)Cc2cncnc2)[C@@H](C)CN([C@@H](C)CO)S3(=O)=O)c1 | 12 | -4[16.7 µM]
COc1ccc(S(=O)(=O)N(C)C[C@@H]2Oc3cc(-c4ccccc4OC)ccc3S(=O)(=O)N([C@@H](C)CO)C[C@H]2C)cc1 | -18 | 27[16.7 µM]
CCCc1cn(CC[C@@H]2CC[C@@H](NC(=O)C3CCCCC3)[C@H](CO)O2)nn1 | 3 | -12[16.7 µM]

Additional records follow:
SMILES | UUG fidelity | HIV Env fusion
C[C@H](CO)N1C[C@H](C)[C@H](CN(C)S(=O)(=O)c2ccc(Cl)cc2)Oc2c(NS(=O)(=O)c3ccc(F)cc3)cccc2C1=O | -10 | 15[16.7 µM]
COCC#Cc1cnc2c(c1)C(=O)N([C@@H](C)CO)C[C@@H](C)[C@H](CN(C)C(C)=O)O2 | 1 | -15[16.7 µM]
O=C(C[C@@H]1C[C@@H]2c3cc(NS(=O)(=O)c4ccc(F)cc4)ccc3O[C@@H]2[C@H](CO)O1)NCCc1ccccc1 | -7 | 8[16.7 µM]
O=C(C[C@@H]1CC[C@@H](NC(=O)Nc2cc(F)ccc2F)[C@H](CO)O1)NCc1ccccn1 | -7 | -20[16.7 µM]
C[C@@H]1CN([C@@H](C)CO)C(=O)Cc2cc(NC(=O)Nc3ccc(F)cc3)ccc2O[C@@H]1CN(C)Cc1ccc(-c2ccccc2)cc1 | 0 | -10[16.7 µM]
COc1ccc(NC(=O)N(C)C[C@@H]2Oc3c(NC(=O)C4CCCCC4)cccc3C(=O)N([C@H](C)CO)C[C@@H]2C)cc1 | 4 | -13[16.7 µM]
Cc1ccc(S(=O)(=O)Nc2ccc3c(c2)C(=O)N([C@H](C)CO)C[C@H](C)[C@@H](CN(C)S(=O)(=O)c2ccc(F)cc2)OCCCC[C@@H](C)O3)cc1 | 22 | 12[16.7 µM]
C[C@@H]1CN([C@H](C)CO)C(=O)c2cc(NC(=O)NC3CCCCC3)ccc2O[C@@H](C)CCCCO[C@@H]1CN(C)Cc1ccc(C(F)(F)F)cc1 | 3 | -23[16.7 µM]
CN(C)Cc1cn(CC[C@@H]2CC[C@@H](N)[C@H](CO)O2)nn1 | 8 | 49[16.7 µM]
C[C@@H]1CN([C@@H](C)CO)S(=O)(=O)c2ccc(C#CC3CC3)cc2O[C@H]1CN(C)Cc1ccccn1 | -11 | -6[16.7 µM]
COc1ccc(-c2ccc([C@H]3[C@@H](C#N)N(C(=O)c4cccc(F)c4)[C@@H]3CO)cc2)cc1 | -16 | -9[16.7 µM]
C[C@H]1CN([C@@H](C)CO)S(=O)(=O)c2ccc(C#CC3CC3)cc2O[C@@H]1CN(C)C(=O)c1cccnc1 | 2 | 1[16.7 µM]
Cc1ccccc1-c1ccc2c(c1)O[C@@H](CN(C)C(=O)Nc1ccc(C(F)(F)F)cc1)[C@@H](C)CN([C@H](C)CO)S2(=O)=O | -11 | -25[16.7 µM]
O=C(CN1CCOCC1)N[C@H]1CC[C@H](CCNC(=O)Nc2cc(F)ccc2F)O[C@@H]1CO | -5 | -3[16.7 µM]
CCCC#Cc1cnc2c(c1)C(=O)N([C@H](C)CO)C[C@@H](C)[C@H](CN(C)Cc1cccnc1)O2 | 0 | 3[16.7 µM]
COc1cccc(NC(=O)N(C)C[C@H]2Oc3cc(C#Cc4ccc(F)cc4)ccc3S(=O)(=O)N([C@@H](C)CO)C[C@@H]2C)c1 | -1 | 0[16.7 µM]
C[C@H](O)C#Cc1ccc2c(c1)O[C@H](CN(C)C(=O)c1ccncc1)[C@H](C)CN([C@@H](C)CO)S2(=O)=O | -8 | 1[16.7 µM]
C[C@H](CO)N1C[C@H](C)[C@H](CN(C)C(=O)Nc2ccc3c(c2)OCO3)Oc2ccc(NC(=O)NC3CCCCC3)cc2C1=O | -1 | -5[16.7 µM]
Cc1ccc(S(=O)(=O)N(C)C[C@@H]2Oc3c(NC(=O)Nc4ccccc4)cccc3C(=O)N([C@@H](C)CO)C[C@@H]2C)cc1 | -1 | -4[16.7 µM]
C[C@@H]1CN([C@@H](C)CO)C(=O)c2cccc(NC(=O)c3cnccn3)c2O[C@H]1CN(C)S(=O)(=O)c1cn(C)cn1 | -16 | -3[16.7 µM]

Another view of some results above.
canonical_smiles,UUG fidelity,HIV Env fusion
O=C(CN1CCOCC1)N[C@H]1CC[C@H](CCNC(=O)Nc2cc(F)ccc2F)O[C@@H]1CO,-5,-3[16.7 µM]
Cc1ccccc1-c1ccc2c(c1)O[C@@H](CN(C)C(=O)Nc1ccc(C(F)(F)F)cc1)[C@@H](C)CN([C@H](C)CO)S2(=O)=O,-11,-25[16.7 µM]
C[C@H](CO)N1C[C@H](C)[C@H](CN(C)C(=O)Nc2ccc3c(c2)OCO3)Oc2ccc(NC(=O)NC3CCCCC3)cc2C1=O,-1,-5[16.7 µM]
CCCC#Cc1cnc2c(c1)C(=O)N([C@H](C)CO)C[C@@H](C)[C@H](CN(C)Cc1cccnc1)O2,0,3[16.7 µM]

The list goes on.
SMILES | UUG fidelity | HIV Env fusion
C[C@@H]1CN([C@@H](C)CO)C(=O)Cc2cc(NC(=O)Cc3ccccc3)ccc2O[C@H]1CN(C)CC1CC1 | 8 | -1[16.7 µM]
C[C@H]1CN([C@@H](C)CO)C(=O)Cc2cc(NC(=O)Nc3cccc4ccccc34)ccc2O[C@@H]1CN(C)S(=O)(=O)c1ccc(F)cc1 | -13 | 9[16.7 µM]
COc1ccc(NC(=O)Nc2ccc3c(c2)CC(=O)N([C@@H](C)CO)C[C@H](C)[C@H](CN(C)Cc2ccc(Oc4ccccc4)cc2)O3)cc1 | 13 | 10[16.7 µM]
C[C@@H]1CN([C@H](C)CO)C(=O)Cc2cc(NC(=O)Nc3ccc(C(F)(F)F)cc3)ccc2O[C@@H]1CN(C)Cc1ccc(C(=O)O)cc1 | 0 | 6[16.7 µM]
C[C@@H]1CN([C@@H](C)CO)C(=O)c2cc(/C=C/c3ccccc3)cnc2O[C@H]1CN(C)C(=O)NC1CCCCC1 | 7 | 6[16.7 µM]
O=C(Cc1ccncc1)NCC[C@H]1CC[C@H](NC(=O)C2CC2)[C@H](CO)O1 | -21 | 5[16.7 µM]
Cc1noc(C)c1NC(=O)N(C)C[C@H]1Oc2ccc(NS(=O)(=O)c3cccs3)cc2CC(=O)N([C@H](C)CO)C[C@@H]1C | 14 | -9[16.7 µM]
C[C@H](CO)N1C[C@H](C)[C@H](CN(C)C(=O)NC2CCCCC2)Oc2cc(C#Cc3ccc(F)cc3)ccc2S1(=O)=O | -4 | 43[16.7 µM]
C[C@@H]1CN([C@@H](C)CO)C(=O)Cc2cc(NC(=O)CCN3CCOCC3)ccc2O[C@H]1CN(C)S(=O)(=O)c1cccs1 | 6 | -6[16.7 µM]
C[C@H](CO)N1C[C@H](C)[C@H](CN(C)C(=O)Nc2ccc(C(F)(F)F)cc2)Oc2c(NC(=O)Nc3ccc4c(c3)OCO4)cccc2C1=O | -4 | 2[16.7 µM]
COc1ccccc1-c1cn(CC[C@H]2CC[C@@H](NC(=O)C3CCC3)[C@@H](CO)O2)nn1 | -5 | 3[16.7 µM]
CCC(=O)Nc1ccc2c(c1)OC[C@@H](C)N(C(=O)CN(C)C)C[C@H](C)[C@H](OC)CN(C)C2=O | -11 | 1[16.7 µM]
CC(C)NC(=O)Nc1ccc2c(c1)C(=O)N([C@@H](C)CO)C[C@H](C)[C@H](CN(C)S(=O)(=O)c1cn(C)cn1)OCCCC[C@H](C)O2 | -12 | -5[16.7 µM]
C[C@@H]1CCCCO[C@@H](CN(C)Cc2ccc(C(=O)O)cc2)[C@@H](C)CN([C@@H](C)CO)C(=O)c2cc(NC(=O)NC3CCCCC3)ccc2O1 | 22 | -17[16.7 µM]
C/C=C/c1ccc2c(c1)O[C@@H](CN(C)C(=O)C1CCOCC1)[C@@H](C)CN([C@@H](C)CO)S2(=O)=O | 1 | 9[16.7 µM]
CC(C)C#Cc1ccc2c(c1)O[C@H](CN(C)Cc1cncnc1)[C@H](C)CN([C@@H](C)CO)S2(=O)=O | -13 | -2[16.7 µM]
C[C@@H]1CN([C@H](C)CO)S(=O)(=O)c2ccc(-c3cccc(C(=O)N(C)C)c3)cc2O[C@@H]1CN(C)C(=O)Cc1ccccn1 | -14 | 2[16.7 µM]
COc1ccc(S(=O)(=O)N(C)C[C@@H]2Oc3ccc(NC(=O)Nc4c(C)noc4C)cc3CC(=O)N([C@@H](C)CO)C[C@@H]2C)cc1 | -5 | -20[16.7 µM]
Cc1ccc(S(=O)(=O)NCC[C@@H]2CC[C@@H](NC(=O)C3CCOCC3)[C@H](CO)O2)cc1 | 3 | 24[16.7 µM]
C[C@@H]1CN([C@H](C)CO)C(=O)c2cc(NC(=O)Nc3ccc(F)cc3)ccc2O[C@@H](C)CCCCO[C@H]1CN(C)S(=O)(=O)c1ccccc1 | -8 | 48[16.7 µM]
C[C@@H]1CCCCO[C@@H](CN(C)S(=O)(=O)c2ccccc2)[C@H](C)CN([C@H](C)CO)C(=O)c2cc(NC(=O)Nc3cccc4ccccc34)ccc2O1 | -40 | -47[16.7 µM]
C[C@@H]1CN([C@H](C)CO)C(=O)c2cc(C#CC(C)(C)O)cnc2O[C@H]1CN(C)C(=O)CN(C)C | 4 | -13[16.7 µM]
C[C@H](CO)N1C[C@H](C)[C@H](CN(C)Cc2ccc(C(=O)O)cc2)Oc2ncc(C#CCN(C)C)cc2C1=O | -1 | -10[16.7 µM]
Cc1ccc(S(=O)(=O)Nc2ccc3c(c2)C(=O)N([C@H](C)CO)C[C@H](C)[C@@H](CN(C)C(=O)Nc2cccc4ccccc24)OCCCC[C@H](C)O3)cc1 | 11 | 45[16.7 µM]
C[C@@H]1CN([C@@H](C)CO)C(=O)c2cc(NC(=O)c3ccncc3)ccc2O[C@@H]1CN(C)C(=O)Nc1cccc2ccccc12 | 9 | 4[16.7 µM]
C[C@@H]1CN([C@H](C)CO)C(=O)c2cccc(N(C)C)c2O[C@@H]1CN(C)Cc1ccc(C(=O)Nc2ccccc2N)cc1 | 11 | 13[16.7 µM]
CCC(=O)N1C[C@H](C)[C@@H](OC)CN(C)C(=O)c2ccc(NC(=O)NC(C)C)cc2OC[C@H]1C | 20 | -47[16.7 µM]
COc1ccc(NC(=O)Nc2cccc3c2O[C@@H](CN(C)Cc2ccccc2)[C@@H](C)CN([C@H](C)CO)C3=O)cc1 | 8 | -15[16.7 µM]
C[C@@H]1CN([C@H](C)CO)C(=O)c2cccc(N(C)C)c2O[C@@H]1CN(C)Cc1ccncc1 | -11 | 11[16.7 µM]
CC(C)NC(=O)N[C@@H]1CC[C@@H](CCNC(=O)C2CCCC2)O[C@@H]1CO | -3 | 3[16.7 µM]
CCNC(=O)C[C@@H]1CC[C@H]2[C@H](COc3ccc(NC(=O)c4ccc(F)cc4)cc3C(=O)N2C)O1 | 3 | 6[16.7 µM]
C[C@@H]1CN([C@H](C)CO)C(=O)Cc2cc(NC(=O)CCC(F)(F)F)ccc2O[C@H]1CN(C)S(=O)(=O)c1cccs1 | -3 | -3[16.7 µM]
CNC[C@H]1Oc2ccc(N(C)C)cc2CC(=O)N([C@H](C)CO)C[C@@H]1C | -8 | 1[16.7 µM]
N#C[C@H]1[C@@H](c2ccc(C3=CCCCC3)cc2)[C@@H](CO)N1C(=O)CN1CCOCC1 | 14 | 10[16.7 µM]
CCCN(C)C[C@@H]1Oc2ncc(-c3cccc(C#N)c3)cc2C(=O)N([C@@H](C)CO)C[C@H]1C | -1 | -1[16.7 µM]

An excerpt; rates above refer to the full screens.
